2A Renilla: FMDV 2A StopGo reporter, Renilla signal | HEK cells with a luciferase reporter of 2A StopGo recoding | hit rate 0.32% among 120,000 | Potency, µM (doses to about 57.5 µM), without a hit: at the highest dose signal change, negative = less light; active means well fitted falling curve with a large enough effect; inconclusive means small, poorly fitted or top-dose-only effect; inactive means no such curve, though single readings can be large or run the other way; further: nearly all actives have a fitted effect of over 55% in size; overnight with compound
2A firefly: lowers the firefly signal of an FMDV 2A StopGo reporter | HEK cells with a luciferase reporter of 2A StopGo recoding | Potency, µM (top dose mostly 57.5 µM), inactives show top-dose signal change, negative = less light | hit rate 0.23% among 120,000 | AID 1745856; active = well fitted falling curve with a large enough effect; inconclusive = small, poorly fitted or top-dose-only effect; inactive = no such curve, though single readings can be large or run the other way; further: nearly all actives have a fitted effect of over 60% in size; overnight with compound
An asterisk follows results filed as active; ? = inconclusive; & = joins results of further samples; [ ] = dose if it differs, or a comment. On the % scale 0 is the no-effect control and ±100 the full control effect; potency means the concentration at half of the fitted maximal effect.

The first 13 records (preview)
SMILES	2A Renilla	2A firefly
CC(=O)c1cccc(OCc2ccccc2C#N)c1	6.0%	158.2%[activator]
Cc1noc(C)c1S(=O)(=O)N(C)C(C)c1cc2ccccc2o1 (stereo not given)	?	?
Cc1cc(NC(=O)CSc2nccn2-c2cccc(F)c2)no1	-6.0%	8.3%
CCOC(=O)C1CCN(C(=O)Cn2nc(CC)n3c(cc4occc43)c2=O)CC1	?	-13.1%
CCCN(C)c1ccc(/C=N/NC(=S)Nc2cccc(CC)c2)cc1	13.3%	20.3%
Cc1ccc(C)c(CS(=O)(=O)c2cn(CC(=O)N(C(C)C)C(C)C)c3ccccc23)c1	-3.8%	-14.1%
CCc1ccc(C(=O)COC(=O)c2nn(C)c(=O)c3ccccc23)cc1	2.7%	7.4%
CNc1ncnc2c1cnn2-c1ccc(C)c(C)c1	-3.6%	170.5%[activator]
COc1ccc(C(=O)Oc2cc(C)c(Cl)cc2C(C)C)cc1	-0.2%	0.1%
COc1ccc(C2=Nn3c(nnc3-c3cccc(F)c3)SC2)cc1	82.5%[activator]	46.7%[activator]
CC(C)(C)N1Cc2nnn(Cc3ccccc3)c2-c2cc(N3CCCC3)ccc2S1(=O)=O	64.4%[activator]	11.9%
COc1ccc(C(=O)N2CCCN(C(=O)OC(C)(C)C)CC2)cc1OC	-7.6%	-10.3%
Cc1ccc(NC(=O)NCCc2c[nH]c3ccccc23)cc1	-3.1%	111.3%[activator]

The list itself, repeating the preview:
SMILES	2A Renilla	2A firefly
CC(=O)c1cccc(OCc2ccccc2C#N)c1	6.0%	158.2%[activator]
Cc1noc(C)c1S(=O)(=O)N(C)C(C)c1cc2ccccc2o1 (stereo not given)	?	?
Cc1cc(NC(=O)CSc2nccn2-c2cccc(F)c2)no1	-6.0%	8.3%
CCOC(=O)C1CCN(C(=O)Cn2nc(CC)n3c(cc4occc43)c2=O)CC1	?	-13.1%
CCCN(C)c1ccc(/C=N/NC(=S)Nc2cccc(CC)c2)cc1	13.3%	20.3%
Cc1ccc(C)c(CS(=O)(=O)c2cn(CC(=O)N(C(C)C)C(C)C)c3ccccc23)c1	-3.8%	-14.1%
CCc1ccc(C(=O)COC(=O)c2nn(C)c(=O)c3ccccc23)cc1	2.7%	7.4%
CNc1ncnc2c1cnn2-c1ccc(C)c(C)c1	-3.6%	170.5%[activator]
COc1ccc(C(=O)Oc2cc(C)c(Cl)cc2C(C)C)cc1	-0.2%	0.1%
COc1ccc(C2=Nn3c(nnc3-c3cccc(F)c3)SC2)cc1	82.5%[activator]	46.7%[activator]
CC(C)(C)N1Cc2nnn(Cc3ccccc3)c2-c2cc(N3CCCC3)ccc2S1(=O)=O	64.4%[activator]	11.9%
COc1ccc(C(=O)N2CCCN(C(=O)OC(C)(C)C)CC2)cc1OC	-7.6%	-10.3%
Cc1ccc(NC(=O)NCCc2c[nH]c3ccccc23)cc1	-3.1%	111.3%[activator]
CCOC(=O)Cc1csc(SCC(=O)NC2CCC(C(C)(C)CC)CC2)n1 (stereo not given)	14.5%	11.3%
Cc1[nH]c2ccc(C(=O)OCC(=O)NC3CC3)cc2c1C	-7.4%	106.3%[activator]
Fc1ccc(CNc2nc3ccc(Cl)cc3n3nnnc23)cc1	4.8%	-12.8%
O=C(NCCN1CCc2ccccc2C1)c1ccc(F)cc1Cl	-12.7%	0.3%
CCN(CC)S(=O)(=O)c1nnc(NC(=O)c2ccc(Br)cc2)s1	-9.7%	18.8%
COc1ccc(-c2ccc(=O)n(CCNC(=O)Cc3ccccc3)n2)cc1	16.8%	7.1%
CCOC(=O)c1c(C)[nH]c(C)c1S(=O)(=O)N(C)CC(=O)Nc1ccc(OC)cc1	102.8%[activator]	2.0%

Laid out differently: entries from further up.
Second line of a record: 2A Renilla	2A firefly
> CC(=O)c1cccc(OCc2ccccc2C#N)c1
 : 6.0%	158.2%[activator]
> Cc1noc(C)c1S(=O)(=O)N(C)C(C)c1cc2ccccc2o1 (stereo not given)
 : ?	?

Later entries
SMILES	2A Renilla	2A firefly
COCCNCc1ccc(-c2ccc(F)cc2)o1	5.6%	0.0%
CCOc1ccc(N2C(=O)CN(S(=O)(=O)c3ccccc3)CC2(C)C(=O)NCCC(C)C)cc1 (stereo not given)	7.9%	-1.8%
O=c1c2ccccc2sc2cc(Br)ccc12	14.9%	71.9%[activator]
COc1ccc(N(Cc2nnc3n2CCCCC3)C(=O)Nc2cccc(C)c2)cc1Cl	3.7%	-4.3%
Cc1cc(C)c(NC(=O)Nc2sc3nc4n(c(=O)c3c2C)CCC(C)CC4)c(C)c1 (stereo not given)	-12.7%	15.6%
Cc1ccc(SCc2nc(-c3ccc(C(=O)Nc4cc(C)ccc4C)cc3)oc2C)cc1	7.7%	11.4%
CC(=O)N1CCc2nc3sc(C(=O)Nc4ccc(Cl)cc4F)c(N)c3c(C(F)(F)F)c2C1	5.9%&-1.0%	53.1%&-9.9%[activator]
C=CCOC(=O)C(C#N)c1nc2ccccc2nc1N1CCC(C)CC1 (stereo not given)	14.5%	-2.7%
CCCCCCn1nc(C(=O)OCC(=O)NCc2ccc(F)cc2)c2ccccc2c1=O	4.3%	14.2%
Cc1nc(-c2ccccc2)sc1-c1ccc(SCC(=O)Nc2ccccc2)nn1	-10.9%	2.1%
O=C1C=CC(=CN(O)c2ccccc2)C=C1	6.9%	0.0%
CCOc1ccc(-c2cc(C(=O)OC)c3ccccc3n2)c(OCC)c1	-5.3%	8.1%
CN(C(=O)Cn1c(=O)n(CCC(=O)NCc2ccc3c(c2)OCO3)c(=O)c2sccc21)c1ccccc1	-6.1%	20.5%
O=C(Nc1ccccc1Cl)c1sc2cccc(Cl)c2c1Cl	7.2%	2.9%
O=C(Cn1c(=O)nc(-c2ccccc2)c2cc(Cl)ccc21)NCc1ccc(Cl)cc1	-7.9%	-8.6%
O=C(Nc1ccc(Cl)cc1)c1cc(S(=O)(=O)NC2CCCCCC2)ccc1F	69.5%[activator]	0.0%
O=C(Cn1c(=O)n(Cc2cccs2)c(=O)c2cccnc21)Nc1ccccc1F	-10.6%	-3.1%
Cc1ccc(CCNC(=O)c2ccc3c(c2)N(Cc2ccccc2)C(=O)c2ccccc2S3=O)cc1 (stereo not given)	-4.8%	-5.0%
COc1ccc(NS(=O)(=O)c2ccc(-n3cccn3)cc2)cc1OC	?	8.91µM*
CC(C)C(=O)Nc1ccc(C(=O)CSc2nnc(C3CC3)n2Cc2ccccc2)cc1	-11.6%	-12.5%
CCCNC(=O)CNC(=O)CCC1CCCC1	3.7%	-1.1%
CCOc1ccc(CCNC(=O)C2CCN(c3ncnc4c3nc3n4CCCCC3)CC2)cc1	-11.7%	-16.1%
CCOc1ccc(/C=C/c2nc(C#N)c(N3CCCCCC3)o2)cc1	-14.7%	-8.1%
Cc1ccc(CNC(=O)c2ccc(NC(=O)N3CCSc4ncccc43)cc2)cc1	14.3%	15.1%
Cc1ccccc1-c1c(C)oc2c(C)c(O)ccc2c1=O	9.6%	13.5%
Cc1cc(C)n2nc(SCC(=O)Nc3cccc(C(F)(F)F)c3)nc2n1	4.6%	-0.7%
CCCc1cc(=O)[nH]c(-n2nc(C)cc2NC(=O)CCc2ccccc2)n1	7.8%	34.9%[activator]
CCN1CCC(CNC(=O)c2cc(C)nc3cc(F)ccc23)CC1	-5.4%	-16.8%
CC(C)(C)OC(=O)N1CCC(c2c(C(=O)NCCN3CCC(Cc4ccccc4)CC3)cnn2-c2ccc(F)cc2)CC1	-10.8%	-20.5%
COc1ccccc1NC(=O)C1=C(C)Nc2c(C(=O)Nc3cccc(C)c3)cnn2C1c1ccccc1Cl (stereo not given)	-6.8%	-16.0%
Cc1ccc(NC(=O)COC(=O)c2ccccc2C)cc1F	-2.3%	204.6%[activator]
CCCCN(C)S(=O)(=O)c1cc(-c2cc(C)no2)ccc1C	-7.5%	?
CCCCc1c(C)nc2c(-c3ccc(Cl)cc3)c(C)[nH]n2c1=O	-1.6%	6.9%
O=C(Cn1ncc2c3ccccc3n(Cc3ccccc3F)c2c1=O)NCCCc1ccccc1	-3.6%	6.0%
Cc1nn(-c2cccc(Cl)c2)c2c1C(c1ccsc1)SCC(=O)N2 (stereo not given)	-5.3%	16.1%
COC(=O)c1ccc(C)c(NC(=O)c2nn(C(C)C)c(=O)c3ccccc23)c1	1.8%	-0.9%
COc1ccc(NC(=O)C2CCN(S(=O)(=O)c3c(C)noc3/C=C/c3ccco3)CC2)cc1	-6.9%	1.5%
COc1ccc(NC(=O)c2nnn(Cc3nc(-c4cc(OC)c(OC)c(OC)c4)oc3C)c2C)cc1	-13.8%	-8.2%
Cc1c(Cl)cccc1NC(=O)CCn1nc(C)c2c(C)n(-c3ccccc3)nc2c1=O	-5.6%	-7.5%
CCc1ccc(NC(=O)c2c(CC)noc2C)cc1	21.3%	116.1%[activator]
C[C@@H](CO)N(Cc1cn(Cc2ccccc2)nn1)S(=O)(=O)c1ccccc1Br	62.4%[activator]	16.7%
CC1=C/C(=N/NC(=S)Nc2c(C)cccc2C)CC1	21.9%	6.9%
O=C(Oc1ccc2c(-c3cc4cc(Cl)ccc4oc3=O)cc(=O)oc2c1)N1CCOCC1	2.3%	6.1%
CC(Sc1nc(C(F)(F)F)nc2ccccc12)C(=O)Nc1ccc(F)cc1 (stereo not given)	-8.6%	0.7%
O=C(Cn1c(=O)n(Cc2ccco2)c(=O)c2sc3ccccc3c21)Nc1ccccc1C(F)(F)F	-3.8%	-4.8%
O=C(Nc1ccc2c(c1)OCCO2)c1cccn(Cc2ccccc2)c1=O	32.7%[activator]	4.7%
CC(C)c1nn(C)c(N(C)C)c1CNC(C)c1nnc2n1CCC2 (stereo not given)	4.5%	6.1%
CCN(CCCNC(=O)c1ccc(Sc2ccc(C)cc2)c(NC(C)=O)c1)c1cccc(C)c1	0.9%	-11.7%
O=C(OCC1CCCO1)c1ccc2c(c1)N(Cc1cccc(F)c1)C(=O)c1ccccc1S2(=O)=O (stereo not given)	-3.5%	-9.2%
O=C(NCc1ccco1)c1ccc2c(c1)N(Cc1c(F)cccc1Cl)C(=O)c1ccccc1S2	0.0%	1.7%
O=C(OCCCC(F)(F)C(F)(F)F)c1cccc([N+](=O)[O-])c1	-8.7%	6.4%
Cc1cc(C)cc(OC(C)C(=O)Nc2nc3c(s2)CCCC3)c1 (stereo not given)	11.9%	-15.2%
Cc1ccc(CNC(=O)C(=O)NCC(c2ccc3c(c2)OCO3)N2CCOCC2)cc1 (stereo not given)	-10.2%	-22.8%
CCOC(=O)c1c(C)[nH]c(C)c1S(=O)(=O)N1CCCC(C(=O)NCc2ccccc2Cl)C1 (stereo not given)	74.2%[activator]	-8.1%
Cc1cccc(C(=O)NCCC(=O)NCCC(C)C)c1	-9.4%[1.06 µM]	-0.3%
CC1=C(C(=O)Nc2ccccc2C)C(c2ccc(C(C)(C)C)cc2)NC(=S)N1 (stereo not given)	0.6%	6.2%
O=C(CNc1nc(Cl)nc2nc[nH]c12)NCCCO	-1.6%	1.9%
O=C(NCc1ccccc1)c1nnc(Cc2cccc(F)c2)o1	-3.9%	-4.7%
O=C(Cn1c(=O)n(Cc2nc(-c3ccccc3)no2)c(=O)c2ccccc21)Nc1cccc(Cl)c1	-7.6%	-10.0%
Cc1c[nH]c(C=O)c1C	-5.1%	8.2%

Further compounds.
SMILES	2A Renilla	2A firefly
COc1ccc(-c2csc(C3CCSC(C)(C)C3)n2)cc1 (stereo not given)	1.0%	112.2%[activator]
CN(Cc1ccccc1N1CCCC1)C(=O)c1ccc(S(=O)(=O)N2CCOCC2)cc1	11.2%	12.2%
Cc1ccc(C)c(N2CCN(C(=O)CCC(=O)Nc3ccc4nc(N5CCCCC5)cc(C)c4c3)CC2)c1	-12.9%	15.0%
O=C1CC(c2ccc(OCc3ccccc3Cl)cc2)c2cn[nH]c2N1 (stereo not given)	-24.7%	?
CCCCNC(=O)/C=C/C(=O)Nc1cc(Cl)cc(Cl)c1	-7.7%	-8.5%
COCc1cc(C)n(CC(=O)Nc2cc(C(F)(F)F)ccc2Cl)c(=O)c1C#N	2.3%	-9.2%
CCn1cc(C(=O)NCCOc2ccccc2OC)c2ccccc21	3.6%	0.0%
CN(CC(=O)NC(=O)NC1CCCC1)Cc1ccco1	4.1%	38.0%[activator]
COCCCNC(=O)Cc1c(C)c2c(O)cc(C)cc2oc1=O	15.5%	15.4%
Cc1ccc(-c2nnc(Nc3ccc(Cl)cc3)c3ccccc23)cc1S(=O)(=O)NCC1CCCO1 (stereo not given)	-0.5%	-4.1%
Cc1cccc2cc(CN(CC(C)C)C(=O)c3ccco3)c(=O)[nH]c12	1.7%	-8.8%
CCCc1nn2c(=O)cc(COC(=O)c3ccccc3NC(=O)c3ccc(OCC)cc3)nc2s1	?	?
Cc1[nH]c(=O)c(C#N)cc1-c1ccc2nccn2c1	-8.5%	-10.2%
CCOC(=O)CC(NC(=O)Cn1nnc(-c2ccc(C(F)(F)F)cc2)n1)c1ccc(OC)cc1 (stereo not given)	-2.3%	4.1%
Cc1ccc2[nH]cc(CCNC(=O)c3ccccc3C)c2c1	14.4%	18.1%
CCN(CC)S(=O)(=O)c1ccc(=O)n(Cc2cc(=O)oc3cc(C)ccc23)c1	7.7%	13.6%
CCCn1nc(C(=O)Nc2ccc(OC)cc2)c2ccccc2c1=O	21.2%	65.8%[activator]
CC(SCC(=O)NC(C)(C#N)C1CC1)c1ccc(F)cc1 (stereo not given)	6.2%	6.2%
CCCCN(CC)CCCNC(=O)Cn1ncc2c3ccccc3n(Cc3ccc(F)cc3)c2c1=O	-3.5%	0.3%
O=C(Nc1ccccc1F)C1C2CC/C=C\CC/C=C/CCC21 (stereo not given)	8.8%	48.7%[activator]
COc1cccc(NC(=O)C(Cc2ccccc2)NS(=O)(=O)c2ccc3c(c2)oc(=O)n3C)c1 (stereo not given)	3.9%	-3.4%
COc1ccc(OC)c(NC(=O)C(C)n2nc(C)c3c(C)n(-c4ccccc4)nc3c2=O)c1 (stereo not given)	-4.7%	-12.7%

Only part of the results is shown; count on the stated rates, not on these rows.
